Screening results from PubChem.
NPYLR7 agonist: mosquito NPYLR7 agonism; HEK293T NPYLR7/Galpha15, GCaMP6s calcium fluorescence; activation, % at 10 µM; 270,000 tested, 0.15% active; in the data active = activation above about 40%;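 note: 0% = vehicle and 100% = reference agonist at the receptor; some compounds past the cut are filed as inactive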
NPYLR7 agonist max-min: also measured in NPYLR7 agonist; calls as there; activation, %; measured here: Max-Min RFU normalised activation; some inactives read as strong as hits;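 span of the calcium signal over five minutes; 0% = vehicle and 100% = native peptide agonist; compound fluorescence can raise it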
* marks the source's active call; other numbers are inactive results.

The line under a structure holds: NPYLR7 agonist	NPYLR7 agonist max-min
O=C1NCC2(CCCN(Cc3cnc(-c4ccco4)nc3)CC2)O1 (stereo unspecified)
  7.0	-2.9
O=C1CCCCCN1CCC(=O)N1CCC2(CCCN(Cc3ccc(F)cc3)C2)C1 (stereo unspecified)
  4.8	2.2
CCN(CC)C(=O)Oc1ccc2c(ccn2Cc2ccc(OC(F)(F)F)c(Cl)c2)c1-c1ccc(OC)c(OC)c1
  12.4	3.7
COc1ccc(OC)c(-n2cnnc2CCc2ccccc2O)c1
  15.9	12.3
COc1ccc(S(=O)(=O)NCC2CCCO2)cc1N1CCN(S(=O)(=O)c2cc(Cl)c(Cl)cc2Cl)CC1 (stereo unspecified)
  -2.6	7.6
CCCN(Cc1c(-c2ccccc2)nn(C)c1Oc1ccc(F)cc1)CC(O)COCc1ccccc1 (stereo unspecified)
  3.1	5.1
O=C(NC(c1ccccc1)c1ccc2ccccc2n1)C1CCN(CCOc2ccc(F)cc2)CC1 (stereo unspecified)
  9.3	-0.2
CCCN(C(=O)C=Cc1cc(Cl)ccc1Cl)C1CCS(=O)(=O)C1 (stereo unspecified)
  0.4	-1.0
COc1ccc(OCCSc2nnnn2-c2ccc(OC)cc2)cc1
  14.4	22.0
CCOCCNC(=O)c1cncn1-c1ccc(-c2cc(C)cc(C)c2)cc1
  3.2	-1.9
COc1ccccc1C(=O)Nc1nnc(SCc2ccc(C#N)cc2)s1
  24.3	31.6
c1cc(CN2CCc3[nH]nc(-c4ccc5c(c4)OCO5)c3C2)cs1
  7.0	-0.2
Cc1nc(C)c2c(C)c(C(=O)NCCC3CC4CCC3C4)sc2n1 (stereo unspecified)
  6.7	8.6
O=[N+]([O-])c1cccc(-c2nc(-c3ccccn3)no2)c1
  -0.9	-1.1
CC(=O)Nc1ccc(CN(C)c2c(C)nc3ccc(C(=O)Nc4ccc(Cl)c(Cl)c4)cn23)cc1
  -8.9	-11.9
C=CCn1c(=S)[nH]c2sc(C)c(C)c2c1=O
  1.1	0.3
O=C1CCN(CC(O)COCc2ccco2)c2ccsc2CN1CC1CC1 (stereo unspecified)
  23.2	27.2
CCN(CC)c1onc(-c2ccc(F)cc2)c1CN(C(=O)C1CC1)C(C)C
  0.1	15.6
CSCCNC(=O)CC1C(=O)NCCN1Cc1cccs1 (stereo unspecified)
  1.4	-1.3
CC(C)[C@@H]1C[C@@H]2C[C@@H](N(C)Cc3ccccc3)C[C@]2(c2ccccc2)CO1
  8.8	12.9
COc1ccc2c(c1)OC(=O)NC2(c1ccccc1)C(F)(F)F (stereo unspecified)
  8.4	3.0
c1cc[n+](CCCCn2c3ccccc3c3ccccc32)cc1
  9.0	8.6
CCc1c(C)nn(CCNC(=O)C2CC3(CCNCC3)CN2)c1C (stereo unspecified)
  9.6	5.3
CNC(=O)C1CN(C(=O)COc2cc(C)ccc2C(N)=O)c2ccccc2O1 (stereo unspecified)
  -2.8	-2.8
CCN(CC)C(=O)c1ccc(C2CCCN2C(=O)c2occc2C)s1 (stereo unspecified)
  17.3	0.8
COC(=O)c1ccc(C(C)N(C)Cc2ccc(Cl)s2)o1 (stereo unspecified)
  -1.2	-1.8
O=S(=O)(Nc1cc(C(F)(F)F)ccc1-n1cccn1)c1ccccc1
  8.1	13.3
FC(F)(F)c1ccc(-c2noc(CN3CCN(C4CCCC4)CC3)n2)cc1
  -1.6	-3.8
Cc1nc2n(n1)C(=O)C(C(c1cccs1)N1CCc3ccccc3C1)S2 (stereo unspecified)
  2.5	1.7
Cc1ccc(-c2nc(CN3CCCC3c3nc4ccccc4s3)c(C)o2)s1 (stereo unspecified)
  -8.6	-12.2

Compound profiles, from the list above. Screens in order: NPYLR7 agonist	NPYLR7 agonist max-min
`CCN(CC)C(=O)c1ccc(C2CCCN2C(=O)c2occc2C)s1` (stereo unspecified) across the screens: 17.3	0.8
`COC(=O)c1ccc(C(C)N(C)Cc2ccc(Cl)s2)o1` (stereo unspecified) across the screens: -1.2	-1.8

Following part
The line under a structure holds: NPYLR7 agonist	NPYLR7 agonist max-min
O=C(O)C1CCCN(S(=O)(=O)N2CCCCC2)C1 (stereo unspecified)
  2.5	0.8
NC(N)=NC(N)=Nc1ccc(SC(F)F)cc1
  0.1	0.1
CC(=O)Oc1c(-c2ccc(NC(=O)c3cccs3)cc2)c(-c2cccc(C)c2)nn1-c1cccc(C)c1C
  7.5	21.2
O=C(Cc1ccc(Cl)c(Cl)c1)N1N=C(C(F)F)CC1(O)C(F)F (stereo unspecified)
  3.6	9.4
Cc1cc(C)c(C)c(S(=O)(=O)N2CCC(c3cn(Cc4cccc(F)c4)c4ccccc34)CC2)c1C
  24.9	13.3
Cc1cc(=O)[nH]c(-n2nc(C)c(CCC(=O)Nc3ccccc3C(N)=O)c2C)n1
  3.2	-2.6
O=P1(NCCCn2ccnc2)C=C(c2ccccc2)SC(c2ccccc2)=C1
  0.9	5.9
O=C(Nc1cccc([N+](=O)[O-])c1)C12CC3CC(CC(C3)C1)C2
  -6.6	-8.6
Cc1cc2cc(CCNC(=O)C3CC3)c(=O)[nH]c2cc1C
  0.6	11.0
Cc1[nH]c2ccc(C(=O)OCc3ccc(C#N)cc3)cc2c1C
  9.7	5.7

Ordered by count of non-hydrogen atoms (lowest first): part of the list above.
The line under a structure holds: NPYLR7 agonist	NPYLR7 agonist max-min
C=CCn1c(=S)[nH]c2sc(C)c(C)c2c1=O
  1.1	0.3
NC(N)=NC(N)=Nc1ccc(SC(F)F)cc1
  0.1	0.1
O=C(O)C1CCCN(S(=O)(=O)N2CCCCC2)C1 (stereo unspecified)
  2.5	0.8
O=[N+]([O-])c1cccc(-c2nc(-c3ccccn3)no2)c1
  -0.9	-1.1
Cc1cc2cc(CCNC(=O)C3CC3)c(=O)[nH]c2cc1C
  0.6	11.0
O=C(Nc1cccc([N+](=O)[O-])c1)C12CC3CC(CC(C3)C1)C2
  -6.6	-8.6
CCCN(C(=O)C=Cc1cc(Cl)ccc1Cl)C1CCS(=O)(=O)C1 (stereo unspecified)
  0.4	-1.0
COc1ccc(OC)c(-n2cnnc2CCc2ccccc2O)c1
  15.9	12.3
CCN(CC)C(=O)c1ccc(C2CCCN2C(=O)c2occc2C)s1 (stereo unspecified)
  17.3	0.8
COc1ccccc1C(=O)Nc1nnc(SCc2ccc(C#N)cc2)s1
  24.3	31.6
CC(C)[C@@H]1C[C@@H]2C[C@@H](N(C)Cc3ccccc3)C[C@]2(c2ccccc2)CO1
  8.8	12.9
O=P1(NCCCn2ccnc2)C=C(c2ccccc2)SC(c2ccccc2)=C1
  0.9	5.9
Cc1cc(=O)[nH]c(-n2nc(C)c(CCC(=O)Nc3ccccc3C(N)=O)c2C)n1
  3.2	-2.6
O=C1CCCCCN1CCC(=O)N1CCC2(CCCN(Cc3ccc(F)cc3)C2)C1 (stereo unspecified)
  4.8	2.2
CC(=O)Nc1ccc(CN(C)c2c(C)nc3ccc(C(=O)Nc4ccc(Cl)c(Cl)c4)cn23)cc1
  -8.9	-11.9
COc1ccc(S(=O)(=O)NCC2CCCO2)cc1N1CCN(S(=O)(=O)c2cc(Cl)c(Cl)cc2Cl)CC1 (stereo unspecified)
  -2.6	7.6
CCCN(Cc1c(-c2ccccc2)nn(C)c1Oc1ccc(F)cc1)CC(O)COCc1ccccc1 (stereo unspecified)
  3.1	5.1
CC(=O)Oc1c(-c2ccc(NC(=O)c3cccs3)cc2)c(-c2cccc(C)c2)nn1-c1cccc(C)c1C
  7.5	21.2
CCN(CC)C(=O)Oc1ccc2c(ccn2Cc2ccc(OC(F)(F)F)c(Cl)c2)c1-c1ccc(OC)c(OC)c1
  12.4	3.7

(next part)
The line under a structure holds: NPYLR7 agonist	NPYLR7 agonist max-min
COC(=O)C1C(=N)Oc2c(oc(CO)cc2=O)C1c1ccc(Cl)cc1 (stereo unspecified)
  -11.1	-11.5
O=C1CCCN1CCC1CCCCN1C(=O)Nc1cc(F)ccc1F (stereo unspecified)
  7.0	6.0
Cc1nc(SCC(=O)Nc2ccccn2)n[nH]1
  -3.2	-4.7
O=C(NCCN1CCCCC1)c1cc2n(n1)CCN(Cc1ccc(Cl)cc1)C2=O
  16.3	19.8
Clc1ccc(-n2nnnc2Sc2ncnc3sc4c(c23)CCC4)cc1
  1.3	-1.7
CCOc1ccc(-n2c(N3CCSCC3)nc3cc(C(=O)OC)ccc3c2=O)cc1
  4.2	1.1
Cc1ccsc1CNC(=O)c1ccc(C#CC(C)(C)O)o1
  -7.2	-11.3
CC(C)(C)N(CC(=O)N1CCc2sccc2C1c1ccccc1)C(=O)c1ccc(F)cc1 (stereo unspecified)
  17.6	17.0
O=C(c1ccccc1)N1CCN(Cn2nnc3ccccc32)CC1
  3.0	2.4
FC(F)(F)c1ccc(Cl)c(-n2c(COc3ccccc3)n[nH]c2=S)c1
  -14.4	-18.6
O=C1CC(c2nc3ccccc3n2CCCOc2ccccc2)CN1Cc1ccccc1 (stereo unspecified)
  0.0	-4.0
COCC(NC(=O)c1cc(-c2ccccc2)n[nH]1)c1ccnn1C (stereo unspecified)
  16.6	6.7
CCOC(=O)C1(CCOC)CCN(Cc2cc(OC)ccc2F)CC1
  -0.2	-1.2
CCCCSc1nnc2c(n1)OC(c1cc(Br)c(O)c(OC)c1)Nc1ccccc1-2 (stereo unspecified)
  10.7	8.2
Cc1cc(C(=O)CSc2nnnn2Cc2cccs2)c(C)n1-c1ncn[nH]1
  7.0	6.9
CN(CCCc1cnn(C)c1)Cc1cnc2c(-c3ccccc3)cnn2c1
  10.7	7.3
Cc1oc(-c2ccc(Cl)cc2)nc1CN(CC1CC1)CC1CCCO1 (stereo unspecified)
  9.0	1.2
C=CCN(CC=C)c1nc(-c2cccc(Br)c2)nc2ccccc12
  1.9	1.7
CC1CCC(N(Cc2nnsc2Cl)C2CC2)CC1 (stereo unspecified)
  -0.9	-2.1
Cc1c(C(=O)NC2CCCC2)sc(=O)n1Cc1ccccc1
  -1.3	-4.0
O=C(Cn1nc(-c2cccs2)c2sc(N3CCCCC3)nc2c1=O)c1ccc2c(c1)OCCO2
  -1.0	-6.6

As entered above.
Under NPYLR7 agonist, `CN(CCCc1cnn(C)c1)Cc1cnc2c(-c3ccccc3)cnn2c1` shows 10.7
Under NPYLR7 agonist, `CCOC(=O)C1(CCOC)CCN(Cc2cc(OC)ccc2F)CC1` shows -0.2
Under NPYLR7 agonist, `COCC(NC(=O)c1cc(-c2ccccc2)n[nH]1)c1ccnn1C` (stereo unspecified) shows 16.6
Under NPYLR7 agonist, `CC1CCC(N(Cc2nnsc2Cl)C2CC2)CC1` (stereo unspecified) shows -0.9

Only part of the results is shown (hit frequency here may not be typical).
